# miR-21 reporter – qHTS Assay for Modulators of miRNAs and/orActivators of miR-21 | HeLa miR-21 FLuc reporter, luciferase, 48 h | Potency, µM (titrated, usually from 38.3 µM), without a hit: at the top dose reporter change, positive = more light | 340,000 tested, under 10 active | AID 2288, 2010; active = well fitted rising curve with a large enough effect; inconclusive = small, poorly fitted or top-dose-only effect; inactive = no such curve, though single readings can be large or run the other way;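 further: % of control where 0% means no effect; miR-21 action dims this reporter so a rising signal means less miR-21 action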
#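 Using DMEM plus 10% FBS, HeLa miR-21-FLuc cells are incubated with test compounds (final up to about 40uM) for 48 hours; firefly luciferase signal is then imaged following reagent-mediated lysis.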
# Rango complex inh – qHTS Assay for Inhibitors of Rango (Ran-regulated importin-beta cargo) - Importin beta complex formation; Importin subunit beta-1 (Homo sapiens), Q14974; Rango CFP/YFP FRET sensor + importin beta, 45 min; Potency, µM (doses to about 92.2 µM), for inactives: at the top dose inhibition of complex formation; hit rate 0.031% among 340,000; AID 540263, 2011; active = rising FRET ratio curve, often small or poorly fitted; inconclusive = mostly compound fluorescence or quenching in the first reads; inactive = flat curves in all reads;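 further: potency means the concentration at half of the fitted maximal effect; 0% = DMSO wells and 100% = buffer wells lacking importin beta; nearly all actives have a fitted effect of over 15% in size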
#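 FRET biosensor Rango (snurportin 1 IBB between N-terminal EYFP and C-terminal Cerulean), 50 nM in PBS/1 mM DTT/0.02% Tween-20/0.1% BSA, preincubated 5 min RT with compound; 0.125 microM importin beta added, 45 min RT, CFP/YFP FRET ratio read.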
# GLA inh pH 4.5 – qHTS Assay for Inhibitors of Human alpha-Galactosidase at pH 4.5 | Alpha-galactosidase A (Homo sapiens), P06280 | 230,000 tested, under 10 active | purified enzyme, 4-MU-alpha-Gal fluorescence, pH 4.5 | activity change, negative = inhibition, % at 105 µM; inconclusive = small, poorly fitted or top-dose-only inhibition, or a rising curve; inactive = flat fitted curve, though single readings scatter; no compound was filed as active;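 further: 0% = full activity with enzyme and -100% = basal without enzyme; dose as in the result columns while the protocol names 77 µM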
# Target sequence (P06280 whole entry, looked up): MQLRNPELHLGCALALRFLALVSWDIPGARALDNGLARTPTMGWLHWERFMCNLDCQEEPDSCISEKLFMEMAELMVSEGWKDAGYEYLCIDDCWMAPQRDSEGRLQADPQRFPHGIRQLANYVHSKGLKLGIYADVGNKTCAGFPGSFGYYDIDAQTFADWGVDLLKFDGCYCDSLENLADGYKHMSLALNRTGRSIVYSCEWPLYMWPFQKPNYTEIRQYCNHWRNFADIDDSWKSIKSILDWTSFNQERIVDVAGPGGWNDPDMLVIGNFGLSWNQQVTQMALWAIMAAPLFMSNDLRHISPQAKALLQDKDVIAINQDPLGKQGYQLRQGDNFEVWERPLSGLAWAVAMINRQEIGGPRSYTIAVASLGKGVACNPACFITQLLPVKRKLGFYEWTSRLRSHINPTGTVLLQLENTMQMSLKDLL
# Rango dissoc inh – qHTS Assay for Inhibitors of RanGTP induced Rango (Ran-regulated importin-beta cargo) - Importin beta complex dissociation. Potency, µM (titrated, usually from 46.1 µM), for the others: top-dose activity change, negative = inhibition. AID 540253, 2011. hit rate 0.071% among 340,000. Biochemical FRET Rango-importin beta, RanGTP-induced dissociation. Snurportin-1 (Homo sapiens) + GTP-binding nuclear protein Ran (Homo sapiens) + Importin …; active means falling FRET ratio curve, often poorly fitted, with flat reads before Ran was added; inconclusive means other falling curves, or compound fluorescence or quenching; inactive means flat or rising ratio curve;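 further: potency means the concentration at half of the fitted maximal effect; % of control where 0% means no effect; nearly all actives have a fitted effect of over 45% in size; -100% = wells without RanGTP and RCC1; the record marks most hits as doubtful in a second field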
#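 Quantitative HTS using a FRET biosensor: 0.1 uM Rango, 0.25 uM importin beta, 0.6 uM Ran, 2 mM GTP, 0.2 uM RCC1 final, PBS with DTT, Tween-20 and BSA. Post-read taken 45 min after Ran addition.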
# Active calls of the source: *; ? = inconclusive; . = no result given; & = joins results of further samples.
molecule,Rango dissoc inh,miR-21 reporter,GLA inh pH 4.5,Rango complex inh
Cc1cc(C(=O)CSc2n[nH]c(N)n2)c(C)n1-c1ccc(F)cc1,10%,-35%,8,-4.2%
O=C(O)Cc1csc(NC(=O)CSc2cccc(C(=O)O)n2)n1,-9%,1%,2,-2.6%
CCOCC(=O)Nc1cc(-c2cn3cccnc3n2)ccc1C,16%,-5%,29,4.4%
CCn1c(CCc2nc3ccccc3[nH]2)n[nH]c1=S,-5%,-3%,0,0.8%
O=C(Cn1cc(S(=O)(=O)Cc2ccccc2)c2ccccc21)N1CCOCC1,3%,1%,.,-0.6%
Cc1cc(C(=O)CSc2nnc(-c3cccnc3)n2-c2ccccc2F)c(C)n1CC1CCCO1 (configuration not stated),-6%,-2%,3,1.3%
COc1cc2c(cc1NS(=O)(=O)N1CCCCC1)oc1ccccc12,-2%,0%,0,5.5%
Cc1oc2cc3oc(=O)c(CCC(=O)N[C@H](C(=O)O)C(C)C)c(C)c3cc2c1C,-11%,-8%,.,0.1%
O=C1NC2(CCCCC2)C(=O)N1CCN1C(=O)c2ccccc2C1=O,-10%,-1%,0,0.8%
CC(=O)n1ccnc1,-5%,-3%,.,1.4%
O=C(NCC1CCN(Cc2ccccc2F)CC1)C1CCCN(c2ncnc3c2nc2n3CCCCC2)C1 (configuration not stated),-9%,0%,.,-1.4%
O=C(CN1C(=O)NC2(CCCCCCC2)C1=O)Nc1ccc(Br)cc1Br,-17%,.,.,0.8%
CCN1C(=O)[C@H]2[C@H]3CN=C(SCc4ccccc4)N3[C@@](C)(C(=O)OC)[C@H]2C1=O,1%,.,.,-1.5%
COC(=O)C1=C(C(=O)OC)C(c2ccc(OC)c(OC)c2)c2sc(=O)[nH]c2S1 (configuration not stated),2%,-17%,-20,0.1%
C[C@@H](OC(=O)c1[nH]cnc1C(=O)N1CCN(C(=O)OC(C)(C)C)CC1)c1ccccc1,-10%,.,.,-2.3%
CC(NC(=O)C1CCN(C(=O)Nc2ccccc2)CC1)c1ccccc1 (configuration not stated),-4%,.,.,-1.7%
O=C1c2ccccc2C(=O)N1/N=C/c1ccc(O)c(O)c1,-18%,-21%,1,0.5%
COc1cc(C(=O)NC2CC(C)(C)Cc3c2cnn3-c2ccccc2)cc(OC)c1OC (configuration not stated),2%,1%,.,1.3%
CCOC(=O)/C=C/c1nc(C(=O)OCC)c(C)c(=O)[nH]1,-6%,23%,2,-0.7%
CCN(CC(=O)Nc1cccc(OC)c1)CC(=O)Nc1ccccc1C,0%,-3%,.,1.0%
COC(=O)Nc1ccc(S(=O)(=O)N2CCCC(C(=O)NC3CCCCC3)C2)cc1 (configuration not stated),-3%,5%,5,0.9%
O=C(NCc1ccccn1)c1coc(=O)c(Br)c1,0%,-2%,5,6.9%
Cc1cccc(N2CC(O)(c3cccs3)[N+]3=C2CCCC3)c1C (configuration not stated),-12%,-2%,0,4.1%
COc1ccc(OC)c(Nc2nc(-c3sc(NC(=O)c4ccccc4)nc3C)cs2)c1,.,16%,5,.
CCOC(=O)N1CCN(Cc2nc(N)nc(Nc3ccc(C)cc3)n2)CC1,18%,-10%,1,-5.4%
Cc1cccc(NC(=O)CN2CCN(C(=O)c3oc4c(Cl)cccc4c3C)CC2)c1C,1%,.,.,-3.2%
Cc1ccc(C)c(S(=O)(=O)NCC(=O)N2CCCC2)c1,-12%,0%,.,-3.9%
O=C(CCN1C(=O)c2ccc([N+](=O)[O-])cc2C1=O)Nc1ccccc1C(=O)O,6%,-7%,1,1.4%
CN(C)C(=O)CSc1nnc(-c2cnccn2)n1C,1%,-6%,-1,1.0%
O=C(/C=C/c1ccc(Cl)c([N+](=O)[O-])c1)Nc1ccc(NC(=O)c2ccco2)cc1,-11%,-11%,0,?
O=S(=O)(N[C@H](CO)c1ccccc1)c1ccc(Br)cc1F,-7%,.,.,-2.6%
Brc1cc2ccccc2[n+](Cc2ccccc2)c1,-4%,.,.,3.3%
Cc1cccc(NC(=O)CN(C)S(=O)(=O)c2cccc3cccnc23)c1,10%,-11%,5,-2.5%
Fc1ccc(-c2cc(-c3cccs3)cc(-c3ccccc3)n2)cc1,-5%,-7%,3,3.1%
CCN1C(=O)c2cccc3c(S(=O)(=O)N(C(=O)c4ccncc4)c4ccc(OC)cc4)ccc1c23,?,10%,-12,?
COc1ccc(-n2ncc3c(=O)n(CC(=O)N4c5ccccc5CC4C)cnc32)cc1 (configuration not stated),-10%,-3%,3,-1.0%
CCOC(=O)c1c(C)[nH]c(C(=O)COC(=O)c2cccnc2Cl)c1C,6%,.,.,1.2%
Cc1ccc(C)c(NC(=O)COC(=O)c2ccc3c(c2)OCO3)c1,9%,0%,1,0.1%
CCOc1ccc(S(=O)(=O)N2CCCC(C(=O)NCc3cccnc3)C2)cc1C (configuration not stated),2%,0%,.,-6.2%
Cc1ccc(-n2c(O)cnc2Nc2nc(C)cc(C)n2)cc1,-11%,1%,-9,2.7%
CCN(C(=O)Cn1nnc(-c2ccccc2)n1)C1CCS(=O)(=O)C1 (configuration not stated),0%,.,.,0.4%
N#Cc1ccsc1NC(=O)c1cccc([N+](=O)[O-])c1,-11%,0%,1,-4.8%
O=C(Nc1nc(-c2cccs2)cs1)C1=COCCO1,-3%,-64%,5,?
Cc1ccc(NC(=S)N(CCCN2CCOCC2)Cc2cccnc2)cc1C,-11%,-4%,1,-2.3%
O=C(NCCc1ccc2c(c1)OCCO2)c1cc(S(=O)(=O)N2CCCC2)ccc1Br,0%,.,.,-4.3%
Cc1cc(C)nc(N/N=C/c2ccc([N+](=O)[O-])o2)n1,8%,?,.,-0.7%
O=c1cc(CSc2nnc(COc3ccc(Cl)cc3)o2)c2ccccc2[nH]1,-3%,-6%,-12,2.1%
O=C(O)/C=C/c1ccc2ccccc2n1,-1%,2%,-6,-1.2%
Nc1cccc(C(=O)Nc2cccc3ncccc23)c1,6%,-5%,.,1.4%
CS(=O)(=O)Nc1ccccc1C(=O)NCCSc1ccc(Cl)cc1,-1%,9%,.,-2.1%
Cc1sccc1/C=N/NC(=O)c1cccc2ccccc12,-6%,-26%,2,-3.4%
Cc1ccc(NC(=S)NNC(=O)c2c([N+](=O)[O-])c(C)nn2C)cc1,-9%,-1%,1,-0.6%
Nn1cnnc1SC1CCCCC1NS(=O)(=O)c1ccccc1 (configuration not stated),20%,3%,1,-3.9%
Cc1c(=O)n(OCc2ccc(Cl)cc2)c2ccccc2[n+]1[O-],5%,-2%,9,0.1%
COc1ccccc1-c1cccc([C@@H]2C[C@H]3[C@H](CON3C)CN2C(=O)C(C)(C)C)c1,-17%,.,.,-5.4%
O=C(COC(=O)C1CCN(S(=O)(=O)c2cc([N+](=O)[O-])ccc2Cl)CC1)Nc1ncc(Cl)cc1Cl,-9%,9%,8,-0.6%

# (more compounds)
molecule,Rango dissoc inh,miR-21 reporter,GLA inh pH 4.5,Rango complex inh
Brc1ccc(OCc2nnc(SCC3CCCCC3)o2)cc1,0%,-1%,1,-1.4%
COc1ccccc1CNC(=O)c1ccccc1NC(=O)C1=C(C)OCCS1,8%,14%,.,0.1%
CCCN1C2=NCCN2c2cc(C)c(C)cc21,-19%,1%,0,1.4%
CCCCn1c(N)c(N(CCC(C)C)C(=O)COC(=O)c2ccc3ccccc3c2)c(=O)[nH]c1=O,5%,.,.,2.3%
Cc1ccc(S(=O)(=O)N2CC(O)CC2C(=O)O)cc1 (configuration not stated),3%,2%,.,-2.6%
Cc1ccc(OCCCC(=O)N(C)CC(=O)Nc2ccccc2Cl)cc1,-18%,.,.,2.1%
O=C(CCl)NCCCCCCCCCNC(=O)CCl,21%,?,-3,1.6%
CCCCn1c(=O)[nH]c(=O)c2c1nc(-c1ccc(-c3ccccc3Br)o1)n2CC,-1%,-11%,-4,0.3%
COc1ccc(CCC(=O)NNC(=O)Nc2cccc(Cl)c2)cc1,-15%,-2%,.,-4.7%
O=C(Nc1cc(=O)c2ccccc2o1)N1CCOCC1,-6%,3%,-1,?
CCOC(=O)C1CCCN(S(=O)(=O)c2ccc(OC)c3ccccc23)C1 (configuration not stated),0%,15%,-12,?
Cc1nc(NCc2ccco2)c2c3c(sc2n1)CCC3,2%,-6%,5,-1.0%
Cc1cccc(-n2ncc3c(=O)[nH]c(SCC(=O)N4CC(=O)Nc5ccccc54)nc32)c1,4%,.,.,-0.7%
CCCc1cc(=O)n2[nH]c(-c3ccc(Br)cc3)cc2n1,7%,-55%,-5,-3.1%
CCCCOc1cccc(OCC(=O)Nc2nc3ccccc3[nH]2)c1,-10%,-12%,-5,-0.6%
CCN(CC)C(=O)CSc1nc(COc2ccccc2)nc2ccccc12,4%,1%,.,-0.9%
COc1ccc(CN2CCN(S(=O)(=O)c3ccccc3)CC2)c(OC)c1,11%,-2%&-8%,-1,0.9%
Cc1ccccc1OC(=O)n1c(=S)oc2cc(Cl)ccc21,10%,2%,4,0.7%
O=C(CN1CCN(S(=O)(=O)c2ccccc2)CC1)Nc1cccc(C(F)(F)F)c1,8%,6%,-12,0.5%
COc1cc(/C=C\C(=O)NCc2ccc3c(c2)cc(C)n3C)cc(OC)c1OC,?,-4%,-10,?
CN(Cc1ccccc1)C(=O)CN1C(=O)COc2ccc(S(=O)(=O)N3CCCC3)cc21,-3%,2%,.,-1.7%
Cc1cccc(CN2CCSc3sccc3C2=O)c1,-8%,2%,3,3.5%
Cc1cc(C)nc(SCCn2c(N3CCC(C)CC3)nc3c2c(=O)n(C)c(=O)n3C)n1,.,0%,-2,.
Cc1cccc(Cn2c(C(C)O)nc3ccccc32)c1 (configuration not stated),1%,-4%,6,1.1%
CCC(=O)N1CCc2cc(S(=O)(=O)NCCC(=O)N3CCN(Cc4ccccc4)CC3)ccc21,10%,0%,-1,1.5%
COc1ccc2cc(OCC(=O)NNC(=O)Nc3ccc(F)cc3)ccc2c1,-8%,-9%,.,3.0%
Cc1nnc(SCC(=O)Nc2ccc3c(c2)OCO3)n(N)c1=O,-1%,1%,5,-2.1%
Nc1ncc2c(n1)-c1cc(Cl)ccc1SC2,14%,-1%,1,1.5%
CCn1c(-c2cc(-c3ccc(OC(C)C)cc3)nc3ccccc23)n[nH]c1=S,0%,-33%,-4,-0.4%
C=C(C)C(=O)Nc1cccc(C2=NOC3(C2)C[C@H](C(N)=O)N(C(=O)COc2ccc(Cl)cc2)C3)c1 (some centres not stated),23%,6%,1,-4.8%
COc1cccc(-c2cn(C[C@H]3CC[C@@H]([C@@H]4CC[C@H](Cn5cc(-c6cccc(OC)c6)nn5)O4)O3)nn2)c1,-15%,6%,.,-2.3%
CCN1C(=O)[C@H]2[C@@H](c3ccc(SC4CCCCC4)c(OC)c3)N3CCCC[C@@]3(C(=O)OC)[C@H]2C1=O,1%,.,.,?
Cc1ccc(CNC(=O)c2ccc(Cn3nc(C)cc3C)o2)cc1,1%,-5%,.,4.8%
Cc1ccccc1N=C1NC(=O)/C(=C/c2cccn2C)S1,?,10%,-16,?
S=c1nc(-c2ccccc2)[nH]c2ccc(Br)cc12,-4%,-2%,-5,1.1%
Cc1noc(/C=C/N(C)C)c1S(=O)(=O)N1CCN(c2ccccc2)CC1,-8%,18%,3,?
C(=C\c1ccc2ccccc2n1)/c1ccccc1,9%,17%,-14,-0.3%

# The list is partial, so the mix of outcomes need not match the whole.
